Calb biofilm kill – mixture kills Candida albicans biofilm cells | C. albicans biofilm persisters + clotrimazole, fluorescence viability; primary screen in compound mixtures of four per well | hit rate 0.02% among 120,000 | AID 1242 | inhibition, % at 7.6 µM;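 active = inhibition above 30.3% in the primary screen of four-compound pools, then above 30% when the compound was retested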;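 also: compounds exposed to preformed 24 h biofilms for 48 h; the number belongs to the whole pool; some results filed as inactive read as strong as hits; inactives centre near 12; 0% = biofilm with clotrimazole alone and 100% = kill control; retested singly at about 60 µM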
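Probe or stimulus – Clotrimazole 50 µg/mL co-treatment · System – C. albicans biofilms · Schedule – 24 h biofilm formation, then 48 h compound exposure, 37 °C · Evaluation – percent inhibition of biofilm viability · Technique – 2-h Alamar Blue fluorescence, 535/590 nm excitation/emission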
Active calls of the source: *. An excerpt (hit frequency here may not be typical).

structure	Calb biofilm kill
CCN(CC(=O)NCc1cccs1)c1ccc(S(=O)(=O)N2CCCC2)cn1	0
COc1ccc(CC(=O)n2[nH]c(=O)c3ccccc3c2=O)cc1OC	5
COc1ccc(N2C3=C(CC4=C2CCCC4=O)C(=O)CCC3)cc1	11
Cc1ccc(-c2noc(-c3c(C)noc3C)n2)cc1	22
O=C(/C=C/c1cccnc1)c1ccc(O)cc1	17
CS(=O)(=O)N(Cc1ccccc1Cl)c1ccc(C(=O)NCc2ccccn2)cc1	22
COc1ccc(C(=S)N2CCCCC2)cc1Br	18
COc1ccc(CCNC(=O)CSc2ccc3ccccc3c2)cc1OC	14
O=C(c1sc2ccccc2c1Cl)N1CCN(c2ccccc2F)CC1	-16
O=C1CCC(c2ccccc2)=NN1Cc1c(F)cccc1Cl	6
CSc1nnc(C)c(/C=C/NOCc2cccc(F)c2)n1	6
CC(=O)Nc1ccc(S(=O)(=O)C(C#N)c2nc3ccccc3nc2NCCO)cc1 (stereo not drawn)	4
CCC(=O)Nc1ccc(C(=O)CSc2nc(N)cc(N)n2)cc1	21
Nc1ccccc1C(=O)N(Cc1ccccc1)Cc1ccccc1	5
COc1ccc(OC)c(CN2C(=O)c3ccccc3C2C(=O)NCC2CCCO2)c1 (stereo not drawn)	30
CCOC(=O)c1cnc(-n2[nH]c(C)cc2=O)[nH]c1=O	12
CCN(CC)C(=O)CSc1nc(N)c(C(=O)Nc2ccc(OC)cc2)s1	13
Cc1cccc2nc(-c3cccc(NC(=O)Cc4ccccc4)c3)cn12	7
Nc1cc(Oc2ccc(F)cc2F)cc([N+](=O)[O-])c1	9
NS(=O)(=O)c1ccc(O)c(NC(=O)c2ccc([N+](=O)[O-])o2)c1	15
O=C(NCc1ccccc1Cl)c1ccc(S(=O)(=O)Nc2cccc(C(F)(F)F)c2)cc1	5
Cc1cccc(N(C(=O)CS(=O)CC(=O)Nc2ccc3c(c2)OCO3)C(C)C(=O)NC2CCCC2)c1C (stereo not drawn)	27
OCCC#Cc1ccc(CN2CCN(C3CCCCC3)C(CCO)C2)cc1 (stereo not drawn)	12
CC(C)CCN1CCN(Cc2ccc(Sc3nncn3C)o2)CC1CCO (stereo not drawn)	1
CN(c1ccccc1)S(=O)(=O)c1cccc(NC(=O)c2ccncc2)c1	9
COc1ccc(N2C(=O)/C(=C\c3ccco3)N=C2SCC(N)=O)cc1Cl	17
COc1ccccc1N1CCN(C(=S)NC(=O)/C=C/c2ccccc2)CC1	13
COc1ccc(C(=O)NC2CCCc3ccccc32)cc1S(=O)(=O)N1CCOCC1 (stereo not drawn)	-12
COc1ccc(CCNc2nc3ccccc3n3cnnc23)cc1OC	26
COc1cccc(OC)c1CNC(=O)CCSCc1ccccc1F	14
C/C(=N\Nc1ccc(C(=O)O)cc1)c1ccc(-n2ccnc2)cc1	10
COC(=O)c1nc(NC(=O)c2ccccc2Br)n[nH]1	13
Clc1ccc(-c2csc(N3CCOCC3)n2)cc1	10
COc1ccc(NC(=O)C(c2ccccc2)N2CCN(c3ccccn3)CC2)cc1Cl (stereo not drawn)	5
NC(=S)NNC(=O)Nc1ccc(Cl)c(Cl)c1	13
Cc1ccc(-n2c(C)cc(C3=NNC(=NC4CC4)SC3)c2C)cc1C	5
O=C(C[N+]1(CC#Cc2ccccc2)CCOCC1)c1ccc(Cl)cc1	11
O=C(/C=C/c1ccc2c(c1)OCO2)NCc1ccc(F)cc1	16
CS(=O)(=O)N(CC(=O)NC1CCCC1)Cc1ccc(F)cc1	10
CN(C)c1cccc2c1c(NC(=O)c1ccc(Cl)cc1)nn2C	12
COc1ccc(CN(C)Cc2cc(=O)n3ccsc3n2)c(OC)c1OC	9
CCOc1cc(/C=C2/NC(=O)N(CC(=O)Nc3cccc(C)c3)C2=O)ccc1OCC(N)=O	-8
Cc1cccc(CN2CCCC(C(=O)c3ccc4c5c(cccc35)CC4)C2)n1 (stereo not drawn)	11
COC(=O)[C@@H](NC(=O)O[C@H]1C(=O)c2ccc(OC)cc2O[C@@H]1c1ccc2c(c1)OCO2)C(C)C	17
O=C1C2CCCN2C(=O)N1CCCCN1CCN(c2ccccc2)CC1 (stereo not drawn)	17
COc1ccc(CCN2C(=NC(C)=O)SC3CS(=O)(=O)CC32)cc1OC (stereo not drawn)	33
COc1ccc2c(C)c(C)c(=O)oc2c1OC	11
O=C(O)c1ccc(-c2nc(-c3ccc(Cl)c(Cl)c3)cs2)cc1	13
Clc1nc(NCCN2CCOCC2)nc(NCc2ccccc2)n1	8
Oc1ccc2ccc3[nH]cnc3c2c1	8
COC(=O)[C@@]1(Cc2ccccc2)[C@@H]2C(=CC(=O)[C@H]2CC(=O)C(=O)N(C)C)CN1C(=O)c1ccccc1	11
Cc1ccc(C(=O)Oc2cccnc2)cc1[N+](=O)[O-]	12
COc1cc2nc(CN3CCOCC3)n(CC(=O)NCC(F)(F)F)c(=O)c2cc1OC	18
CCCC1=C(C(=O)OCC)C(c2ccco2)C(C#N)=C(N)O1 (stereo not drawn)	14
COc1ccc(Br)cc1C(=O)NC(=S)Nc1cc(-c2nc3ccccc3[nH]2)ccc1C	11
COCCSc1nnc(NC(=O)C2CC(=O)N(c3ccccc3)C2)s1 (stereo not drawn)	1
CCN(CC)S(=O)(=O)c1cc(C)ccc1SC	17
CC(C)(C)c1nn2cnnc2n(/N=C/c2ccc(O)cc2)c1=O	16
CCCc1ccc(C(=O)NC(=O)c2ccccc2O)cc1	11
O=C(NCc1cccc(C(F)(F)F)c1)C1CC(c2cccc(F)c2)=NO1 (stereo not drawn)	11

More compounds
| Molecule | Calb biofilm kill |
| --- | --- |
| O=S(=O)(Nc1ccccn1)c1cccs1 | 19 |
| Cc1cc(N(CN2CCCC2=O)C(=O)c2ccc(OC(C)C)cc2)no1 | 7 |
| CCC(C)(C)NC(=O)C(c1ccc(OC)cc1)N(CCOC)C(=O)CCC(=O)Nc1nccs1 (stereo not drawn) | 14 |
| CC(C)CC(NC(=O)C(COCc1ccccc1)NC(=O)OC(C)(C)C)C(=O)NN (stereo not drawn) | 18 |
| O=C(O)c1ncsc1-c1ccccc1 | -5 |
| Nc1c(C(=O)NCc2ccco2)c2nc3ccccc3nc2n1CCc1ccccc1 | 14 |
| Cc1ccc(NC(=S)N(CCCN2CCOCC2)Cc2cccs2)c(C)c1 | 15 |
| CCCCC1=NN(C(=O)c2ccncc2)C(O)(C(F)(F)F)C1 (stereo not drawn) | 17 |
| Cc1cc2oc(C(=O)Nc3ccc(S(=O)(=O)Nc4onc(C)c4C)cc3)cc(=O)c2cc1Cl | 29 |
| CO[C@H]1C[C@@H]2CC[C@@H](C)[C@@](O)(O2)C(=O)C(=O)N2CCCC[C@H]2C(=O)O[C@H]([C@H](C)C[C@@H]2CC[C@@H](O)[C@H](OC)C2)CC(=O)[C@H](C)C=C(C)[C@@H](O)[C@@H](OC)C(=O)[C@H](C)C[C@H](C)C=CC=CC=C1C | 17 |
| C=CCNC(=S)N(Cc1ccccc1)Cc1ccc(F)cc1 | 12 |
| O=C(CSc1nnc(Cc2ccsc2)o1)c1ccccc1 | 13 |
| Cc1ccc(OCCn2c(=O)cnc3ccccc32)cc1 | 13 |
| CCn1c(CSc2ncn[nH]2)nc2cc(C(=O)O)ccc21 | 18 |
| CC(C)c1cc(C(=O)N2CCCC(CCC(=O)NCc3ccccc3F)C2)n(C)n1 (stereo not drawn) | 13 |
| Cc1ccccc1-n1c(=O)n(Cc2ccccc2)c(=O)c2[nH]cnc21 | 14 |
| COc1ccc(CSc2cccc3cccnc23)cc1[N+](=O)[O-] | 8 |
| CN(CC1COCCO1)c1nc2nonc2nc1N1CCSCC1 (stereo not drawn) | 10 |
| CCOC1CC(C)(C)NC(=S)N1 (stereo not drawn) | 15 |
| C=C(C)CN(CC)Cc1c(C(=O)N(C)CCCC)nc2ccccn12 | 28 |
| O=C(Nc1cc([N+](=O)[O-])ccc1Cl)C(Sc1ccccc1)c1ccccc1 (stereo not drawn) | 14 |
| CC(=O)NNc1ccc(C(F)(F)F)cc1[N+](=O)[O-] | 15 |
| CCOC(=O)c1c(C)n(C)c2ccc(OC)c(NS(=O)(=O)CC)c12 | 19 |
| FC(F)(F)Oc1ccc(NC(=S)NCc2ccccc2)cc1 | 21 |
| Cc1cccc(N2C(=O)CC(N(C(=O)c3ccco3)c3cccc(C)c3)C2=O)c1 (stereo not drawn) | 10 |
| CCOC(=O)CNC(=O)C(CC(N)=O)NC(=O)OC(C)(C)C (stereo not drawn) | 24 |
| O=C(OCc1nc2scc(-c3ccccc3)c2c(=O)[nH]1)c1cc(Cl)ccc1[N+](=O)[O-] | 4 |
| S=C(NCCc1ccccc1)N1CCN(Cc2ccc(Cl)c(Cl)c2)CC1 | 24 |
| CC(C)[C@H](NC(=O)c1ccco1)C(=O)OCC(=O)Nc1cccc(F)c1 | 16 |
| COc1ccc(C(NC(C)=O)c2ccc3cccnc3c2O)c(OC)c1 (stereo not drawn) | 20 |
| O=c1oc(-c2ccccc2NS(=O)(=O)c2ccc(F)cc2)nc2ccccc12 | 17 |
| COc1cc([N+](=O)[O-])ccc1NC(=O)CCN1C(=O)C2C3CCC(C3)C2C1=O (stereo not drawn) | 11 |
| CC1CCCN(CCSc2ccc(Cl)cc2)C1 (stereo not drawn) | 8 |
| Cc1cccc(NC(=O)c2ccc(CN3CCc4ccccc4C3)cc2)c1C | 9 |
| Cc1ccccc1C(C(=O)NC1CCCCC1)N(C(=O)CNC(=O)c1ccco1)c1cccnc1 (stereo not drawn) | 11 |
| COc1ccc(C(=O)C[n+]2ccc(-c3nnc4n3CCC4)cc2)cc1 | 18 |
| CCOC(=O)c1c(NC(=O)NC(C)(C)C)sc2c1CCN(C)C2 | 22 |
| COC(=O)c1cc(NC(=O)c2cc(-c3ccc(Cl)cc3)oc2C(F)(F)F)ccc1N1CCOCC1 | 23 |
| COc1ccc(-c2cnc(N)nc2-c2ccc(OCc3ccccc3)cc2O)cc1 | 14 |
| Cc1[nH]n(-c2ccccc2)c(=O)c1C=Nc1ccc2[nH]c(=O)[nH]c2c1 | 11 |
| COc1cccc(C(=O)Nc2nc(-c3ccccc3)c(-c3ccccc3)o2)c1 | 9 |
| O=C(/C=C/c1cccs1)N1CCC2(CC1)Oc1ccc(Cl)cc1C(=O)C21CC(c2cccnc2)=NO1 (stereo not drawn) | 15 |
| CC(=O)Nc1ccccc1NC(=O)c1cc(C)cc(C)c1 | 5 |
| COc1ccc(NC(=O)CSc2nc(N)c3cc4c(nc3n2)CC(C)(C)OC4)cc1 | 9 |
| COc1ccccc1CNC(=O)C(C)NS(=O)(=O)c1ccc(Br)cc1 (stereo not drawn) | 9 |
| COC(=O)c1cc(NC(=O)c2cccc([N+](=O)[O-])c2C)ccc1Cl | -17 |
| CCOc1ccc(NC(=O)COc2ccc(OC)cc2)cc1 | 18 |
| Cc1cccc(NC(=O)c2nc[nH]c2C(=O)N[C@@H](CC(C)C)C(=O)OCc2ccccc2)c1 | 7 |
| CCOc1ccc(S(=O)(=O)NCc2ccccc2OC)cc1 | -6 |
| Cc1cc(C)nc(NC(=O)CSc2nccc(C)n2)n1 | 1 |
| CC(C)COc1ccc(S(=O)(=O)NNC(=O)c2cc3ccccc3o2)cc1 | 14 |
| COc1ccccc1OCc1ccc(C(=O)Nc2ccc(Cl)cn2)o1 | 33 |
| COC(=O)c1ccc(/C=N/Nc2nc(N3CCCCC3)nc(N3CCCCC3)n2)cc1 | 0 |
| Fc1ccc(CNCc2ccccc2Cl)cc1 | 18 |
| CCC(=O)N1COC[C@@H]1Cc1ccccc1 | 10 |
| Cc1c(Cl)cn2c(=O)cc(CN3CCN(c4ccccc4)CC3)nc2c1Cl | 4 |
| CC(=O)Nc1ccc2nc(NC(=O)c3cccs3)sc2c1 | 17 |
| CN(C)S(=O)(=O)c1ccc(C(=O)N2CCN(S(=O)(=O)c3cccs3)CC2)cc1 | 9 |
| COc1ccccc1/C=C/CN1CCC(CO)(Cc2ccccc2)CC1 | 4 |
| CCn1c(C2CCN(Cc3ccccc3)CC2)n[nH]c1=S | 1 |
| NS(=O)(=O)c1ccc(CNC(=S)NC2CCCCC2)cc1 | 15 |
| NC(=O)CC(NC(=O)Cc1ccc(Br)cc1)c1ccc(N2CCC(Cc3ccccc3)CC2)c([N+](=O)[O-])c1 (stereo not drawn) | 20 |
| Cc1ncsc1CCC(=O)N1CCCC(C(=O)c2cccc(Cl)c2)C1 (stereo not drawn) | 14 |

Reprinted at random: two records from the list
| Molecule | Calb biofilm kill |
| --- | --- |
| CN(C)S(=O)(=O)c1ccc(C(=O)N2CCN(S(=O)(=O)c3cccs3)CC2)cc1 | 9 |
| Cc1c(Cl)cn2c(=O)cc(CN3CCN(c4ccccc4)CC3)nc2c1Cl | 4 |

Structural class: the entries above containing an aryl thioether with sulfur outside any ring (14)
| Molecule | Calb biofilm kill |
| --- | --- |
| COc1ccc(CCNC(=O)CSc2ccc3ccccc3c2)cc1OC | 14 |
| CSc1nnc(C)c(/C=C/NOCc2cccc(F)c2)n1 | 6 |
| CCC(=O)Nc1ccc(C(=O)CSc2nc(N)cc(N)n2)cc1 | 21 |
| CCN(CC)C(=O)CSc1nc(N)c(C(=O)Nc2ccc(OC)cc2)s1 | 13 |
| CC(C)CCN1CCN(Cc2ccc(Sc3nncn3C)o2)CC1CCO (stereo not drawn) | 1 |
| COCCSc1nnc(NC(=O)C2CC(=O)N(c3ccccc3)C2)s1 (stereo not drawn) | 1 |
| CCN(CC)S(=O)(=O)c1cc(C)ccc1SC | 17 |
| O=C(CSc1nnc(Cc2ccsc2)o1)c1ccccc1 | 13 |
| CCn1c(CSc2ncn[nH]2)nc2cc(C(=O)O)ccc21 | 18 |
| COc1ccc(CSc2cccc3cccnc23)cc1[N+](=O)[O-] | 8 |
| O=C(Nc1cc([N+](=O)[O-])ccc1Cl)C(Sc1ccccc1)c1ccccc1 (stereo not drawn) | 14 |
| CC1CCCN(CCSc2ccc(Cl)cc2)C1 (stereo not drawn) | 8 |
| COc1ccc(NC(=O)CSc2nc(N)c3cc4c(nc3n2)CC(C)(C)OC4)cc1 | 9 |
| Cc1cc(C)nc(NC(=O)CSc2nccc(C)n2)n1 | 1 |

Screening results deposited in PubChem BioAssay by PCMD.
